Screening results (PubChem BioAssay)
Sfp PPTase inh – Sfp phosphopantetheinyl transferase inhibition; actives 3.5% (n = 310,000); Biochemical Sfp PPTase activity, qHTS; Potency, µM, inactives show max response, negative = inhibition, most hits filed as inhibitors; active means well fitted inhibition curve with a large enough effect; inconclusive means small, poorly fitted or top-dose-only effect, or another doubt; inactive means no such curve, though single readings can be large or run the other way;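 further: the enzyme is Sfp with the accession as filed and its product quenches rhodamine fluorescence; potency means the concentration at half of the fitted maximal effect; 0% = enzyme reaction without inhibitor and -100% = no enzyme wells; top concentration of the series not given in the record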
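Buffer: 50 mM Hepes-Na pH 7.6, 10 mM MgCl2, 0.01% Nonidet P-40, 0.01% BSA. Enzyme 15 nM, pre-exposed to compound 15 min; substrates then added and fluorescence change tracked over 30 min.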
ClpP mod – qHTS Assay for Activators of ClpP; actives 1.9% (n = 340,000); ATP-dependent Clp protease proteolytic subunit (Bacillus subtilis (strain 168)), P80244; purified B. subtilis ClpP, FRET peptide cleavage, 20 min; Potency, µM (doses to about 57.5 µM), without a hit: at the top dose activity change, negative = active; active = well fitted falling curve with a large enough effect; inconclusive = small, poorly fitted or top-dose-only effect; inactive = no such curve, though single readings can be large or run the other way; further: potency means the concentration at half of the fitted maximal effect; the source files actives as falling curves though it sought activators and does not explain the sign; nearly all actives have a fitted effect of over 65% in size; many hits overshoot -100%
Target sequence (P80244 whole entry, looked up): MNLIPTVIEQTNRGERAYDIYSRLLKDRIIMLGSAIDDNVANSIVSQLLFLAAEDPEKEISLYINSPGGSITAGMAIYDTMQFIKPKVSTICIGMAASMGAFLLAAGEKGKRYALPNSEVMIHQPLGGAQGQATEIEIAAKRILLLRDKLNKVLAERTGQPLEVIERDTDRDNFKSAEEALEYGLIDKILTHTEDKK
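ClpP 10 microg/mL final, pH 8 Tris/KCl buffer with BSA, glycerol, Tween-20; compound pinned in; FRET-FV substrate; RT 20 min; Ex320/Em430; ΔFRET vs ADEP 5.8 microM, DMSO, no enzyme.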
Menin-MLL FL inh – menin-MLL binding inhibition, fluorescein peptide; FP activity change, % at 61.4 µM; 290,000 tested, under 10 active; Fluorescence polarization, fluorescein-MLL peptide displacement from menin; inconclusive = falling polarisation curve, or a change in total fluorescence; inactive = total fluorescence flat and polarisation flat or rising; no compound was filed as active; the % refers to the polarisation; negative = inhibition;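 further: % of control where 0% means no effect; inhibitors lower the polarisation; unlabelled MLL peptide was the positive control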
TRPML1 blocker – inhibitors of human TRPML1 channel. activity change, negative = inhibition, % (no concentration beside the values). actives 0.02% (n = 390,000). TRPML1-inducible cells, Ca2+ dye fluorescence, FDSS; active compounds read low; inhibition of EC80 agonist-evoked calcium signal. AID 624415. Q9GZU1; in the data active means activity change below about -50%; inconclusive means about -30% to -50%; inactive means above about -30%;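 further: stimulus is agonist 54-4 at its EC80 concentration; on the % scale 0 is the no-effect control and ±100 the full control effect; compound concentration not given in the record; the text of the record puts the active cut at -80%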
Target sequence (Q9GZU1 whole entry, looked up): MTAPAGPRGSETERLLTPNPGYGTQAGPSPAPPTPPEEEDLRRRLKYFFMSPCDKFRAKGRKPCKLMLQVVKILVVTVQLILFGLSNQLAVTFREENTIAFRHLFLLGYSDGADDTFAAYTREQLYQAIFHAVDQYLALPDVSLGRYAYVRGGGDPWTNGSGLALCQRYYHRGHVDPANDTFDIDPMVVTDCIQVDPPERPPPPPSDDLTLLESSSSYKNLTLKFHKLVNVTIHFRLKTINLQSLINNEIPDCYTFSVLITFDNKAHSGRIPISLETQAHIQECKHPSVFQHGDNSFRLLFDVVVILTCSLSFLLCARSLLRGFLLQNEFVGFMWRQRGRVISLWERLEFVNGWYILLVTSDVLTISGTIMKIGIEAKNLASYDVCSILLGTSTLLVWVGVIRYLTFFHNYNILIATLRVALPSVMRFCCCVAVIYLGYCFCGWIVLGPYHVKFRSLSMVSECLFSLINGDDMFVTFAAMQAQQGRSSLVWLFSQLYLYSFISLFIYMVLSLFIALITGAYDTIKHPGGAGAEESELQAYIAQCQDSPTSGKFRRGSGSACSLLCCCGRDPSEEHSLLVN
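TRPML1-DL cells, Tet-induced overnight (~16 h, 37 °C) at 1,500 cells/well, were loaded with Ca8 no-wash dye plus quencher for 45-90 min at room temperature. Compounds were pinned during FDSS kinetic reading; agonist 54-4 at EC80 (4 uM final) then added.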
PINK1 modulator – modulators of PINK1 expression | actives 0.2% (n = 410,000) | Potency, µM (top dose mostly 76.6 µM), for inactives: top-dose activation (PINK1 increase), most hits filed as activators | PINK1 immunofluorescence, high-content cytometry, 24 h; active = well fitted activation curve with a large enough effect; inconclusive = small, poorly fitted or top-dose-only effect; inactive = flat fitted curve, though single readings scatter; cell line not stated here;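 further: potency means the concentration at half of the fitted maximal effect; % of control where 0% means no effect; nearly all actives have a fitted effect of over 65% in size; a mitochondrial uncoupler was the plate control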
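Measures PINK1 amount and localization on or inside mitochondria by immunofluorescence. Stable cells get compounds at 5 concentrations for 24 hours before fixation and staining; CCCP controls included.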
TRPV1 PAM – enhances activation of the human vanilloid receptor TRPV1; TRPV1-expressing cells, Fluo-8 calcium influx, capsaicin EC20 potentiation; host cell line not named in the record; control for the full effect not named in the record; potentiation, % at 8.33 µM; actives 0.02% (n = 320,000); AID 540277; Q8NER1; active means potentiation above 80%; inconclusive means 30% to 80%; inactive means below 30%; further: 0% is about no effect
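Fluo-8 calcium influx in TRPV1-expressing cells, kinetic read (ex 480/em 520 nm). Compound added and read 3 min for agonist activity, followed by capsaicin at EC20 final and 2 min further read for enhancement.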
TRPML1 ag – activates the human TRPML1 channel | Q9GZU1 | TRPML1-expressing cells, Ca2+ dye fluorescence, FDSS; host cell line not named in the record; reference of the full effect not given here | activation, % (concentration not given with the values) | actives 0.12% (n = 410,000) | AID 624414; in the data active = activation above about 50%; inconclusive = about 30% to 50%; inactive = below about 30%; further: 0% is about no effect; the text of the record puts the active cut at 80%
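Agonist activity was taken from a 110 s kinetic Ca2+ dye read on the FDSS after pinning compounds onto TRPML1-DL cells. The cells were seeded at 1,500/well with Tet inducer, incubated about 16 h, then dye-loaded at room temperature.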
* hit, by the source's call; ? = inconclusive; nt = not tested or not shown; & = joins results of further samples; [ ] = another dose, or the depositor's remark.

SMILES	Sfp PPTase inh	ClpP mod	Menin-MLL FL inh	TRPML1 blocker	PINK1 modulator	TRPV1 PAM	TRPML1 ag
CC1=CC(=O)C(C(C)C)=C/C1=N\OC(=O)c1cccc2nc(C)oc12	-2.2%	-1.4%	2.5	-18.1	0.4%	-14.0	-0.8
C=CCc1cccc2cc(C(=O)N3CCN(C(=O)c4ccccc4)CC3)c(=O)oc12	-13.8%	nt	nt	-1.0	0.1%	-1.2	-0.5
O=[N+]([O-])c1cc(S(=O)(=O)N2CCCC2)ccc1N/N=C1/CCCc2ccccc21	7.4%	15.8µM*	9.9	31.7	2.9%	3.6	-0.2
CCOC(=O)CC1C(=O)NCCN1c1nc2ccc(C)cn2c(=O)c1/C=C1\SC(=S)N(CC(C)C)C1=O (stereo not drawn)	-3.6%	nt	?	-7.8	23.6%	7.2	22.5
Cc1ccc(Cn2c(C3CCCN3c3nc(C)cs3)nc3cc(C(=O)NCCCO)ccc32)cc1 (stereo not drawn)	nt	1.3%	nt	55.4	0.3%	nt	-0.1
COc1cccc(-c2nc(S(=O)(=O)c3ccc(C)cc3)c(NCc3ccccc3)o2)c1	nt	4.2%	nt	62.8	2.7%	nt	1.4
CC(C)[C@H]1C=C(C(=O)O)O[C@@H](OCc2ccc(CO)cc2)C1	7.1%	-1.7%	-1.9	-4.5	-0.8%	?	0.0
CC(=O)N/C(=C/c1ccc(OS(=O)(=O)c2ccc(C)cc2)cc1)C(=O)NCCO	10.0%	1.8%	0.3	18.2	-0.3%	-4.8	1.2
CCCCc1nc(Cl)c(C#N)c2c1CCC2	2.5%	nt	-2.0	9.5	1.7%	-46.0	-0.2
Cc1ccc(S[C@@H](CCN2CC[C@H](C)CCC2=O)c2ccccc2)cc1	?	1.5%&-2.7%	-1.8	8.4	-1.1%	-7.6	0.9&0.3
O=C(C[n+]1ccc(/C=C/c2ccccc2)cc1)c1ccc2c(c1)OCCO2	-4.1%	nt	12.0	1.5	4.8%	4.7	1.5
CSc1ccccc1NC(=O)c1ccc(C)o1	-1.9%	0.5%	0.1	-1.0	23.2%[38.3 µM]	-8.0	-0.3
c1ccc(CCCCN2CCN=C2Nc2ccccc2)cc1	nt	2.4%	nt	48.0	0.8%	?	0.0
Cc1nnc2sc(SCC(=O)Nc3ccc(Cl)cc3)nn2c1=O	18.9%	nt	2.6	7.3	1.6%	3.2	-0.4
COc1cc(/C=N/Nc2ccc(Cl)nn2)cc(OC)c1O	50.1µM*	-0.5%	-3.9	9.1	-1.5%	3.6	1.2
Cc1cccc(N2CCN(C(=O)c3c(C)oc4nc(C)nc(N5CCCC5)c34)CC2C)c1 (stereo not drawn)	nt	-4.6%	nt	?	11.3%	nt	1.7
CC(C)CCNC(=O)COc1ccc(C(=O)c2ccccc2)cc1	18.4%	0.8%	0.0	13.1	2.9%	-9.5	0.7
CCOC(=O)C(=O)N(Nc1ccccc1C)c1ccccc1C	5.6%	-1.3%	0.0	-2.3	0.6%	-13.4	1.2
O=C(c1cc(COc2ccc(F)cc2Cl)on1)N1CCCC(OCc2cccnc2)C1 (stereo not drawn)	14.5%	nt	-0.7	5.2	-0.9%	5.2	2.2
COc1nc(C#N)nc(N(C)C)n1	19.6%	-0.1%&2.2%	3.0	-27.6	1.0%&0.0%	-4.7	0.2&0.1
Cc1onc(-c2ccccc2Cl)c1C(=O)Nc1ccccc1N1CCOCC1	1.8%	-0.7%	4.1	9.1	-2.2%	-36.9	0.5
COc1ccccc1C(=O)NCCn1cc(SCC(=O)NCc2ccco2)c2ccccc21	-9.2%	-1.7%	1.0	7.5	-0.5%[38.3 µM]	?	1.6
O=C(NCCCN1CCCC1=O)c1ccc(OC(F)(F)F)cc1	5.8%	nt	0.4	2.8	-0.1%	-1.2	-0.4
O=C(Nc1ccncc1)C1CCN(S(=O)(=O)c2cccc(C(F)(F)F)c2)CC1	nt	1.2%	nt	-1.8	1.0%	-2.7	0.0
COCCCn1cnc2c(c1=O)c1nc3ccccc3nc1n2CCc1ccccc1	6.4%	0.4%	-0.4	5.6	2.7%	-19.3	-0.5
C=CCn1c(=O)c(C(=O)Nc2ccccc2OC)c(O)c2ccccc21	8.0%	nt	3.1	nt	nt	5.1	nt
O=C(CCN1C(=O)/C(=C/c2ccccc2F)SC1=S)Nc1ccccn1	5.8%	-2.2%	0.3	-0.8	7.3%	14.5	-0.4
Cc1cc(C)c(Cn2c3ccccc3c3cnn(CC(=O)NCc4ccccn4)c(=O)c32)c(C)c1	?	-17.5%	-0.3	-8.9&3.6	0.8%&0.4%	5.5	2.5&-0.3
CCOC(=O)c1cccnc1SCC(=O)Nc1ccc(C)cc1C	nt	1.9%	nt	-6.6	-0.8%	nt	2.2
COc1ccc(NC(=S)N2CCCN(Cc3cc(C)ccc3C)C2)cc1	10.2%	nt	9.0	7.0	0.2%	25.0	0.3
CC(C)CCSc1nc(N)c(C#N)cc1C#N	11.5%	31.6µM*	6.1	-2.8	-2.3%[38.3 µM]	-11.3	0.0
O=[N+]([O-])c1ccc(NCCCNS(=O)(=O)c2ccccc2)cc1	-10.4%	nt	-1.8	-4.9	1.6%	-1.9	-0.9
O=C(O/N=C/c1ccc(Cl)cc1)C1CCCCC1	16.0%	0.6%	-0.4	6.3	1.0%	-4.8	0.3
CN1C(=O)CSC1=S	19.0%	0.8%	-1.3	-7.4	-0.8%	-4.0	0.1
COc1ccc(NC(=O)CCc2ccccc2)cc1S(=O)(=O)N1CCCCC1	nt	0.8%	nt	-13.3	0.9%	13.5	0.6
Cc1nn2c(=O)cc(COC(=O)c3ccccc3NC(=O)c3cccs3)nc2s1	nt	-12.3%	nt	-4.3	0.7%	nt	1.4
Cc1cc2c(n1-c1ccc(C(=O)NCCc3ccc(Cl)cc3)cc1)CCCC2	nt	-3.0%	nt	-4.8	1.6%	nt	1.5
Cc1c(C(=O)NCc2ccc(F)cc2)sc(=O)n1Cc1ccc(Cl)c(Cl)c1	nt	-2.8%	nt	nt	0.1%	nt	0.2
CC1CN(C(=O)COC(=O)COc2ccc(C#N)cc2)CC(C)O1 (stereo not drawn)	nt	-1.8%	nt	-11.9	-2.1%	-1.7	0.3
O=C(OCC(=O)N1CCCC1)c1ccc(Cl)c([N+](=O)[O-])c1	17.7%	nt	nt	19.8	-1.2%	-6.1	-0.2
COc1cc(OC)c(S(=O)(=O)Nc2ccc(C)cn2)cc1NC(C)=O	1.8%	-1.7%	3.8	41.1	-2.2%	19.7	-0.3
CC(C)(Oc1cccc2ccccc12)C(=O)O	6.8%	?	-3.1	-0.5	-0.5%	8.6	0.4
O=S(=O)(c1ccccc1)c1cnn2c(C(F)(F)F)cc(-c3ccc(F)cc3)nc12	20.8%	?	-2.2	12.1	18.7%	nt	0.0
Cc1cc(OCC(=O)NC2CCCCC2)ccc1Cl	4.3%	1.0%	2.7	-2.4	6.1%	10.3	0.7
CC(C)C[C@H]1CNC(=S)N1CC1CCCN1C[C@H](CC(C)C)N1C[C@H](Cc2ccc(O)cc2)N(CC2CCCCCC2)C1=S (stereo partly drawn)	nt	-3.2%	nt	2.5	?	nt	-0.5
Cc1ccc(N2C(=O)N(CC(=O)Nc3ccc(C)c(C)c3)C(=O)C2C)cc1 (stereo not drawn)	nt	-7.5%	nt	8.6	3.4%	-12.8	1.1
CC1CCN(S(=O)(=O)c2ccc(N=NC3=C(O)CC(C)(C)CC3=O)cc2)CC1	1.5%	1.9%	5.2	-17.1	2.4%	?	0.3
CC(=O)Nc1ccc(NC(=O)c2ccc(COc3ccc4c(C)cc(=O)oc4c3)cc2)cc1	11.9%	nt	8.6	nt	nt	-14.7	nt
Cc1nn2c(C)c(C(=O)N3CCN(c4ccccc4)CC3)cnc2c1-c1ccccc1	nt	1.1%	nt	11.1	4.6%	nt	1.5
Cc1ccc(-n2nc3c(c2NC(=O)c2cccs2)CSC3)cc1	8.0%	-7.7%	0.3	0.1	-1.4%[38.3 µM]	-16.5	-0.1
CC(C)CC(=O)Nc1ccc(C(=O)Nc2cccc(O)c2)cc1	19.7%	0.4%	-1.0	-6.9	0.8%	16.1	0.0
COc1ccc(/C=N/NC(=O)c2ccoc2C)cc1O	9.8%	-14.5%	4.3	11.7	1.0%	4.9	0.6
CCNc1ncc2ncc(=O)n(CCOC)c2n1	6.3%	nt	?	nt	-0.7%	nt	nt
Cc1cccc2sc(N(Cc3cccnc3)C(=O)CCS(=O)(=O)c3ccccc3)nc12	nt	6.9%	nt	-3.6	24.0%	nt	0.7
Cc1ccc(C)c(NC(=O)CCC(=O)N2CCOc3ccccc32)c1	1.3%	-4.9%	-2.4	10.1	-0.6%	0.5	-0.4
O=S(=O)(c1ccc(Cl)cc1)N1CCN2CCCC2C1 (stereo not drawn)	18.4%	-0.3%	3.4	25.0	0.6%	10.2	-1.1
COc1ccc(C(=O)Nc2c(C)cc(C)cc2C)cc1OC	16.7%	0.7%	0.0	-6.4	-0.4%	18.8	-0.1
O=C(/C=C/c1ccccc1)NC(=S)Nc1ccc2c3c(cccc13)CC2	12.4%	0.8%	nt	3.3	15.1%	23.3	1.2
Cc1ccc(OCCCC(=O)NNC(=O)c2ccncc2)cc1	nt	0.7%	nt	20.8	-0.7%	6.8	-0.6
CCN(CC)CC(C(=O)N(CC)CC)P(=O)(c1ccccc1)c1ccccc1 (stereo not drawn)	11.8%	-0.2%	17.6	0.1	5.6%	4.0	0.5
New compounds follow.
SMILES	Sfp PPTase inh	ClpP mod	Menin-MLL FL inh	TRPML1 blocker	PINK1 modulator	TRPV1 PAM	TRPML1 ag
O=S(=O)(c1ccc(Br)cc1)n1ccc2ccccc21	8.4%	-3.2%	0.0	-3.5	?	1.3	1.1
O=C(NCCOc1ccc2ccccc2c1)c1cncc(Br)c1	4.9%	-0.5%	1.2	nt	3.6%	-5.2	nt
NC(=O)c1c(NC(=O)Cn2cnc([N+](=O)[O-])n2)sc2c1CCCC2	6.6%	-1.1%	-3.5	49.5	0.5%	-3.6	0.4
CN(CC(=O)Nc1cccc(F)c1)C(=O)c1ccc(S(=O)(=O)N2CCCC2)cc1	nt	-2.6%	nt	16.4	0.6%	-3.7	-0.2
CCn1c2ccccc2c2cc(/C=N/NC(=O)c3ccc(O)cc3)ccc21	7.5%	1.3%	1.1	2.8	0.3%	-15.9	1.6
